Source: PubChem BioAssay (several laboratories)
INS promoter inh – inhibitors of insulin promoter-driven GFP, primary screen, imaging, TRM-6 cells (human fetal islet line), eGFP reporter, cell count; AID 1273, 2008; inhibition, % at 2 µM; reporter expression induced with tamoxifen; 130,000 compounds, 0.9% hits;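 active means inhibition above the mean plus 3 SD, with well images judged a real hit on visual review, cut at about 60% in these data, passing the limit was not always enough; inconclusive means inhibition over the cutoff but images rejected on review; inactive means inhibition not above the cutoff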
HSV augment – enhancers of HSV replication in host cells, fold increase, host cell viability; HSV replication augmentation in cells; maximum fold increase; 220,000 compounds, 0.005% hits; AID 1956, 2009;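 active means peak rise of 1.5-fold or more in the series; inconclusive means self-fluorescent or not available for retest; tested in PC3 cells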;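 further: first round at 10 µM; read as green reporter fluorescence; hits show the peak of a series up to 25 µM; 1 = signal of infected wells without compound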
PKD1 kinase inh – inhibitors of human PKD1 kinase, biochemical, fluorescence polarization | 200,000 compounds, 0.056% hits | inhibition, %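 (about 10 µM by stock and volumes)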 | AID 797, 2007 | PKD1 kinase fluorescence polarization assay;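 active means inhibition of 50% or more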;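 further: controls were vehicle for no effect and a reference inhibitor for full effect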
Target sequence (Q15139 whole entry, looked up): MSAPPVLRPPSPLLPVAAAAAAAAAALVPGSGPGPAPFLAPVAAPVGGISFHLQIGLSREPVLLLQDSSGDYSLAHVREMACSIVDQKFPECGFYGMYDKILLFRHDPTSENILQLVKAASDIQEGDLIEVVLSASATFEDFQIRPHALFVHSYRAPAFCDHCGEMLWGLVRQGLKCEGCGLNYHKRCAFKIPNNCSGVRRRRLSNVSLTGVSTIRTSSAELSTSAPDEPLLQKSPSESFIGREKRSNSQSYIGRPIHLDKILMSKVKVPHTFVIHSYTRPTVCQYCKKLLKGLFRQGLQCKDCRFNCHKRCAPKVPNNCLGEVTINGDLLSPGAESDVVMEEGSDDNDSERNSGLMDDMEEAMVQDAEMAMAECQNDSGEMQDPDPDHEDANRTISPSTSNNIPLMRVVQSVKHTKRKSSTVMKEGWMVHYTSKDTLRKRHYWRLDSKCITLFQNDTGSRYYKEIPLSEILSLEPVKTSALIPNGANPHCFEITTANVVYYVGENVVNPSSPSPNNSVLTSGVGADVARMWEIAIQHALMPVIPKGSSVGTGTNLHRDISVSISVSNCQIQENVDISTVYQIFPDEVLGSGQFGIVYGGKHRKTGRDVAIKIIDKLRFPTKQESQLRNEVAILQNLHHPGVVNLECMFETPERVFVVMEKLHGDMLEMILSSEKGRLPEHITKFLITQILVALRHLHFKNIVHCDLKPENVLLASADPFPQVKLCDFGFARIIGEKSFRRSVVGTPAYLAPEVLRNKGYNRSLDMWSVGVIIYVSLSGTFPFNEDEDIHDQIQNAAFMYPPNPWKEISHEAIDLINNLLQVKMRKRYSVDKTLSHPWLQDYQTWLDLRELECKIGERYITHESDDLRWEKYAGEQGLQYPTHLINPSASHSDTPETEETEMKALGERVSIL
RGS16-Gao – modulators of RGS16 binding to Galphao, primary screen, biochemical, human proteins, multiplexed bead flow cytometry; bead-based flow cytometry RGS16-Galphao binding, fluorescence; actives lie on both sides; binding response (% of control), % at 10 µM; 220,000 compounds, 0.38% hits; AID 1441, 2008;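 active means below 25% or above 175%, edge rows of some plates excepted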;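 further: Galphao activated by GDP with aluminum fluoride before binding; 100% = wells without compound and 0% = beads without RGS; some results beyond the cut were filed as inactive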
GALR2 ag – GALR2 receptor agonists, primary screen, cell-based; AID 803, 2007; 140,000 compounds, 0.48% hits; Galanin receptor type 2 (Homo sapiens), O43603; GALR2-expressing cells, agonist activation read-out; activation, %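 (tested at 5 µM)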;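 active means above mean plus 3 SD of all compounds, about 5% in these data, not always enough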;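 further: 0% = vehicle buffer wells and 100% = reference agonist at full effect; tested in CHO reporter cells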
INS promoter inh cell count – second read-out of INS promoter inh, no call of its own (marks repeat the call); normalized cell count, %; measured here: cell count, toxicity; reference of the scale not given here;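 cells exposed to compound for 48 h; stained nuclei by imaging scaled within each plate; lower means fewer cells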
HSV augment primary fold – recorded beside HSV augment, whose call it bears; fold increase; compound at 10 µM; measured here: primary screen fold increase 10 uM; tested in PC3 cells;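 GFP signal in the first replicate; 1 = infected wells without compound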
The depositor's hits bear a star; i = inactive; u = inconclusive; x = not tested or not shown; [ ] = dose if it differs, or a comment. An unsorted share of the library; 1.1% or so of the library scored in one or more.

Every second line gives: INS promoter inh, INS promoter inh cell count, HSV augment, HSV augment primary fold, PKD1 kinase inh, RGS16-Gao, GALR2 ag
> O=C(Nc1nc2ccc3ccccc3c2s1)c1ccc(N2CCCCC2)c([N+](=O)[O-])c1
  x, x, i, 0.77, -3, 107, -0.2
> C/C(=N\NC(=O)c1ccccc1)c1ccc(NC(=O)c2cccs2)cc1
  x, x, i, 0.99, -3, 76, 0.1
> COCCNC(=O)C(=O)NNS(=O)(=O)c1ccc(Cl)cc1
  x, x, i, 0.97, 0, 106, x
> O=C(Nc1ccccc1N1CCN(C(=O)c2ccc(Cl)cc2)CC1)c1cccnc1
  x, x, i, 0.83, -11, 93, -2.9
> CCOCCCNC(=O)C(NC(=O)CC1NC(=O)NC1=O)c1ccc(Cl)cc1 (stereo unspecified)
  43, 176, i, 1, -13, 101, -1.9
> CN(C)S(=O)(=O)c1ccc2c(c1)c(=O)c(C(=O)N1CCOCC1)cn2C
  x, x, i, 0.96, -9, 109, -0.1
> CC(=O)OCC(=O)NCc1ccc2c(c1)OCO2
  x, x, i, 1, -6, 110, -3.2
> COc1ccccc1/C=C/C=c1\sc2nc(=O)c(Cc3ccccc3)nn2c1=O
  x, x, i, 1, x, 102, x
> CCOC(=O)N1CCC(NC(=O)c2cnc3n(c2=O)CCS3)CC1
  x, x, i, 0.98, -10, -13*, x
> COc1ccc(-c2nnn(Cc3nc(N)nc(N4CCOCC4)n3)n2)cc1OC
  23, 159, i, 0.89, -9, 101, -0.8
> COC(=O)c1ccccc1NC(=O)CSc1ncccn1
  x, x, i, 0.92, x, 77, x
> Cc1ccc(C(=O)O)cc1NC(=O)c1ccc(Cn2nc(C)c(Cl)c2C)o1
  x, x, i, 0.9, 3, 78, x
> CN(C)C(=O)COc1ccc(Br)cc1
  25, 122, x, x, -3, 98, -0.5
> C/C(=N\Nc1nc(N)cc(Cl)n1)c1ccc(F)cc1
  x, x, i, 0.96, -12, 105, x
> Cc1nc(-c2ccccc2)sc1-c1nnc(C2CC2)o1
  x, x, i, 1.3, x, 99, x
> COC(=O)C1=C(C)NC2=C(C(=O)CCC2)C1c1cccs1 (stereo unspecified)
  61, 64, i, 0.81, -3, 110, -1.1
> O=C(NNC(=O)c1cccnc1)Nc1ccccc1
  -14, 43, i, 1.1, -8, 99, -1.3
> Cc1c(CN2CCC(CO)(CCOc3ccccc3)CC2)c(=O)n(-c2ccccc2)n1C
  x, x, i, 0.99, -4, 93, x
> CC(C)(CC(=O)O)CC(=O)Nc1ccc(Oc2ccc(C(C)(C)C)cc2)nc1
  x, x, i, 1, x, 89, x
> Cc1cccc(NC(=S)N2CCCC(c3nc4ccccc4[nH]3)C2)c1 (stereo unspecified)
  23, 61, i, 1.1, 2, 104, x
> CCC(CC)C(=O)NCc1ccc(Cl)cc1
  18, 116, i, 1.1, 0, 103, x
> CC(=O)c1ccc(N2CCN(C(=O)c3ccc4c(=O)n(-c5ccccc5)c(=O)[nH]c4c3)CC2)cc1
  -3, 105, i, 1.1, -10, 139, -0.7
> O=C(CSc1nc2nn(-c3ccccc3)c(=O)c-2c2n1CCCCC2)NCCCc1ccccc1
  -133, 125, i, 1, -3, 108, x
> O=C(N/N=C/c1ccco1)c1cc(Br)ccc1OCc1ccccc1
  3, 89, i, 1.1, 5, 123, 0.7
> Cc1cccc(NC(=O)CSc2nc(C)c(CC(=O)c3ccc(Br)cc3)c(C)c2C#N)c1C
  10, 120, i, 0.85, -10, 95, -3.2
> CC(C)(C)C(=O)NC(=S)Nc1ccccn1
  x, x, i, 0.98, -7, 96, x
> O=Cc1ccc(OCC(=O)Nc2ccccc2-c2ccccc2)cc1
  7, 91, i, 1, 4, 90, x
> CC(/C=N/n1c(-c2ccccc2)n[nH]c1=S)=C\c1ccco1
  -37, 122, i, 0.95, -8, 99, -2.4
> COc1cccc(N2CCN(C3CC(=O)N(c4ccc(Cl)c(Cl)c4)C3=O)CC2)c1 (stereo unspecified)
  0, 66, i, 0.97, 2, 97, 2.0
> Cc1ccc(-n2nc3c4c(cccc4c2=O)-c2ccccc2-3)cc1
  -3, 94, i, 1.1, 1, 106, -1.4
> CCCN=C1N/C(=C\c2ccco2)C(=O)N1c1ccccc1
  -3, 98, i, 1.2, -3, 101, -4.3
> Cn1c(SCc2c(Cl)cccc2Cl)nc(C(F)(F)F)cc1=O
  -48, 79, i, 1.1, 0, 101, -1.9
> CCCCOC(=O)CCc1nc2ccccc2[nH]c1=O
  0, 141, i, 0.91, 0, 102, -1.2
> CCOC(=O)c1[nH]c2ccc(OC)cc2c1NC(=O)CCN1CCCC(C)C1 (stereo unspecified)
  x, x, i, 1.2, -9, 99, -1.4
> O=C(CSc1nc(-c2ccccc2Cl)ns1)c1ccc(Cl)cc1
  x, x, i, 1.2, 3, 104, -0.1
> Clc1ccc(C2=NNC(=NCC3CCCO3)SC2)cc1 (stereo unspecified)
  x, x, i, 1.3, 5, 98, -0.9
> Cc1ccc(/C=N/NC(=O)CCn2nc(C)cc2C)c(C)c1
  0, 129, i, 0.94, 2, 100, x
> CCOc1ccccc1OCCCC(=O)N1CCN(S(=O)(=O)c2cccc(F)c2)CC1
  x, x, i, 0.95, -6, 91, -1.5
> N#Cc1c(N2CCN(C(=O)c3ccccc3)CC2)nc(-c2ccccc2)c2c1CCCC2
  -79, 160, i, 0.93, -2, 101, 1.2
> Cc1cccc(C(=O)N/N=C2\CS(=O)(=O)N(C)c3ccsc32)c1
  x, x, i, 0.88, x, 103, x

Exported with each value named: part of the list above
CC(=O)OCC(=O)NCc1ccc2c(c1)OCO2
  INS promoter inh = x	INS promoter inh cell count = x	HSV augment = i	HSV augment primary fold = 1	PKD1 kinase inh = -6	RGS16-Gao = 110	GALR2 ag = -3.2

COc1ccccc1/C=C/C=c1\sc2nc(=O)c(Cc3ccccc3)nn2c1=O
  INS promoter inh = x	INS promoter inh cell count = x	HSV augment = i	HSV augment primary fold = 1	PKD1 kinase inh = x	RGS16-Gao = 102	GALR2 ag = x

CCOC(=O)N1CCC(NC(=O)c2cnc3n(c2=O)CCS3)CC1
  INS promoter inh = x	INS promoter inh cell count = x	HSV augment = i	HSV augment primary fold = 0.98	PKD1 kinase inh = -10	RGS16-Gao = -13*	GALR2 ag = x

(further entries)
Every second line gives: INS promoter inh, INS promoter inh cell count, HSV augment, HSV augment primary fold, PKD1 kinase inh, RGS16-Gao, GALR2 ag
> Cc1ccccc1OCc1nnc(SCCN2CCCC2)n1-c1ccccc1
  -30, 256, i, 0.85, -15, 107, x
> N=c1c2c(-c3ccccc3)c(-c3ccccc3)oc2ncn1Cc1ccco1
  -23, 117, i, 0.85, -8, 107, -1.5
> Cc1ccc(SCCNC(=O)/C=C/c2ccc([N+](=O)[O-])cc2)cc1
  -24, 72, i, 1.1, -8, 280*[activator], -0.8
> CC(C)Cc1cc(C(=O)Nc2ccc(F)cc2F)no1
  50, 131, i, 0.85, -1, 102, -3.0
> O=C(CSc1nc(O)c(Cc2ccccc2)c(=O)[nH]1)c1ccccc1
  x, x, i, 1, x, 105, x
> CCOc1ccc(C2=Nn3cnnc3SC2)cc1
  40, 118, i, 0.96, 8, 101, 1.1
> COCCN(CCOC)S(=O)(=O)c1ccc(C(=O)Nc2ccc([N+](=O)[O-])cc2OC)cc1
  x, x, i, 0.99, 6, 112, x
> CCC(=O)c1ccc(OCc2ccc(C(=O)OC)o2)c(OC)c1
  15, 105, i, 0.87, -12, 98, -1.1
> O=C(Nc1ccc(NC(=O)c2sc3ccccc3c2Cl)cc1Cl)c1ccco1
  -48, 55, x, x, -2, 94, -0.9
> CCn1c(SCC(=O)N(C)C2CCS(=O)(=O)C2)nnc1-c1cccs1 (stereo unspecified)
  x, x, i, 1, -2, 101, x
> C=CCc1ccc(OCC(O)COCC)c(OC)c1 (stereo unspecified)
  x, x, i, 0.9, 2, 101, -0.6
> CCN1CCN(C(=S)Nc2ccccc2Cl)CC1
  -47, 118, i, 0.98, -6, 105, -2.5
> CSc1ccccc1C(=O)Nc1ncc(C)s1
  -19, 104, i, 1.1, -1, 100, -2.0
> CCOC(=O)c1sc(NC(=O)c2ccccc2OCC)nc1C
  x, x, i, 1, -1, 94, x
> Cn1c(NCCCO)nc2c(c1=O)C1(CCCCC1)Cc1ccccc1-2
  -36, 95, i, 0.82, -6, 103, -1.6
> O=C(CN(C(=O)CNC(=O)c1ccco1)c1ccc(Cl)c(Cl)c1)NC1CCCCC1
  22, 116, i, 1.1, 3, 96, -0.4
> Cn1nccc1C(=O)NC(=S)Nc1sc2c(c1C#N)CCCCC2
  x, x, i, 0.95, -19, 104, -1.5
> CC1CC(=S)Nc2ccccc2N1C(=O)Nc1ccccc1 (stereo unspecified)
  15, 120, i, 1, -16, 100, -0.4
> O=[N+]([O-])c1cccnc1N1CCOCC1
  x, x, i, 0.81, 3, 111, -1.4
> CCN1CCN(CC(=O)NC2CCCC2)C(=O)C1=O
  x, x, i, 0.93, -11, 103, -2.6

Complete entries as entered above. Screens in order: INS promoter inh, INS promoter inh cell count, HSV augment, HSV augment primary fold, PKD1 kinase inh, RGS16-Gao, GALR2 ag
`N=c1c2c(-c3ccccc3)c(-c3ccccc3)oc2ncn1Cc1ccco1` as listed: -23, 117, i, 0.85, -8, 107, -1.5
`CCN1CCN(CC(=O)NC2CCCC2)C(=O)C1=O` as listed: x, x, i, 0.93, -11, 103, -2.6
`O=C(CN(C(=O)CNC(=O)c1ccco1)c1ccc(Cl)c(Cl)c1)NC1CCCCC1` as listed: 22, 116, i, 1.1, 3, 96, -0.4
`O=[N+]([O-])c1cccnc1N1CCOCC1` as listed: x, x, i, 0.81, 3, 111, -1.4

Next section:
canonical_smiles,INS promoter inh,INS promoter inh cell count,HSV augment,HSV augment primary fold,PKD1 kinase inh,RGS16-Gao,GALR2 ag
C/[N+]([O-])=C\CC(=O)c1ccc(-c2ccccc2)cc1,x,x,i,0.94,5,98,x
CCC(C)(C(=O)NC1CCCCC1)N(Cc1cccs1)C(=O)CC1NC(=O)NC1=O (stereo unspecified),0,85,i,1,-12,79,-0.6
CCOC(=O)c1cccc(NC(=O)c2cc3sccc3n2C)c1,x,x,i,1.1,1,105,-1.3
O=C(NCC1CCCO1)c1onc(CSc2ccc(F)cc2)c1C(=O)O (stereo unspecified),-16,165,i,0.97,8,101,-2.8
Cc1cc(Cl)nc2c(C(C)C)cccc12,18,56,i,1,2,115,x
CCOc1ccc(NC(=O)Nc2ccc3nsnc3c2)cc1,x,x,i,0.97,-3,103,x
CCSc1nnc([C@H](Cc2c[nH]c3ccccc23)NC(=O)OC(C)(C)C)o1,47,153,i,0.88,-2,106,-2.5
CCC1CCc2c([nH]c3ccccc3c2=O)O1 (stereo unspecified),24,58,i,1.1,-1,160,-0.9
COc1ccc(N(C)S(=O)(=O)c2cccc(C(=O)N(C)Cc3ccc(C)o3)c2)cc1,x,x,i,0.94,0,91,x
O=C(CSc1ncn[nH]1)Nc1c(Br)cc([N+](=O)[O-])cc1Br,x,x,i,1.3,-6,108,-1.9
Cc1ccc(/C=N/n2c(-c3ccc(Cl)cc3)n[nH]c2=S)s1,-36,58,i,0.99,-8,99,x
Cc1occc1-c1nnc(SCC(=O)c2ccccc2)n1CC1CCCO1 (stereo unspecified),-6,123,i,0.88,-2,101,-2.4
COc1ccc(-c2noc(C3CCCN(S(=O)(=O)c4ccc(C)c(Cl)c4)C3)n2)cc1OC (stereo unspecified),x,x,i,1.1,-3,94,-2.9
O=S(=O)(Cc1cccc(C(F)(F)F)c1)c1ncn[nH]1,6,90,i,1.2,2,101,x
Cc1ccc(C(C)C)c(OCc2nnc(SCC(=O)Nc3nccs3)n2C)c1,-425,73,i,0.97,-2,102,-2.0
CCOC(=O)/C=C1\SCC(=O)N1CC(=O)Nc1ccc(OC)c(OC)c1,-67,111,u,x,-6,100,-0.8
COc1cccc(/C=N\Nc2nncc(-c3ccccc3)n2)c1,-24,101,i,0.93,-9,102,-1.0
O=C(CSc1nc2ccc(Cl)cc2[nH]1)NCc1ccco1,0,73,i,1,-3,100,-2.0
CCOC(=O)c1c(C)cc(C)n2c1nc1ccccc12,75*,322*,i,0.97,-3,101,-1.0
Cc1cc(C(=O)N2CCc3ccccc32)c2cc(F)ccc2n1,x,x,i,1,-10,96,-0.8
